Anaer choline gr – choline-fed anaerobic bacterial growth inhibition. 55,000 tested, 0.2% active. calls only. Gram-negative bacterium anaerobic choline minimal medium, absorbance growth; stronger effect = lower value; many inactives read as strong as hits in the columns shown;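 active means growth z-score on choline under -2 at 7 or 20 h with little or no fall on glycerol, limits in tiers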;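 further: stock transfer was 300 nL into about 50 µL; the organism is E. coli; final concentration not given here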
Anaer choline gr early – second read-out of Anaer choline gr, no call of its own (marks repeat the call); z-score; measured here: choline growth z-score, timepoint 1;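 score of optical density at 7 h as mean of two plates; lower means less growth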
An asterisk follows results filed as active; i = inactive; & = joins results of further samples. Only part of the results is shown; the hit share may differ from the screen's.

SMILES | Anaer choline gr | Anaer choline gr early
CCn1nc(C)c2c1c(=O)n(Cc1ccc(F)cc1)c(=O)n2CC(=O)Nc1ccsc1C(=O)OC | i | 0.52
Cc1cc(C2CCCN2C(=O)NCCC(C)C)on1 (stereo not given) | i | -1.2
Cc1ccc(N2C(=O)CCS2(=O)=O)cc1S(=O)(=O)N1CCOCC1 | i | -1.7
Cc1cc(Sc2ccc(NC(=O)Nc3cccc(Cl)c3)cc2)n2ncnc2n1 | i | -0.37
CN(C(=O)c1ccc(N2C(=O)CCS2(=O)=O)cc1Cl)C1CCS(=O)(=O)C1 (stereo not given) | i | -0.59
O=C(NC1CCN(Cc2ccccc2)CC1)C1CCN(c2ncnc3c2oc2ccccc23)CC1 | i | 0.34
CN(C)C(=O)c1ccc2c(c1)N(CC(=O)N1CCCCC1)C(=O)CO2 | i | -0.14
Cc1nn(-c2cc(N3CCCC3)ncn2)c(C)c1CCC(=O)Nc1cccc(Cl)c1 | i | 0.13
CCCCNC(=O)CN1C(=O)C2CCCC2=Nc2ccccc21 (stereo not given) | i | -0.37
O=C(NCc1ccc(Cl)cc1)C1CCN(c2nnc(-n3cccc3)s2)CC1 | i | -0.69
CCc1onc(C)c1C1CCCN1Cc1ccccn1 (stereo not given) | i | -0.68
COc1ccc(Br)c(C2CC(=O)Nc3n[nH]c(C)c32)c1 (stereo not given) | i | 0.29
O=C1C(O)=C(c2ccccc2)C(c2cccc(Br)c2)N1Cc1ccc2c(c1)OCO2 (stereo not given) | i | 0.21
COC(=O)C(C)Sc1nnc2n1CCN2c1ccc(OC)cc1 (stereo not given) | i | 1
CN1c2cc(Cl)ccc2-c2nc(SCC(=O)NC3CCCCC3)ncc2S1(=O)=O | i | 0.51
O=C(CSc1ccccc1)N1CCN(c2nc3cc(Br)ccc3n3cccc23)CC1 | i | -0.42
COc1ccccc1CNC(=O)CC(C)CC1=NS(=O)(=O)c2ccccc2N1 (stereo not given) | i | -0.27
COc1cc2c(cc1O)CC[C@@H]1[C@@H]2CC[C@]2(C)[C@@H](O)CC[C@@H]12 | i | 0.37&0.64
CN1C(=O)CC(c2ccccc2)C1=O (stereo not given) | i | -0.07&0.24
COc1ccc2nc(-n3nc(C)c4c3NC(=O)CC4c3c(C)sc4ccccc34)sc2c1 (stereo not given) | i | -0.05
CCc1nnc(NC(=O)CSc2nc3c(=O)n(C)c(=O)n(C)c3n2C)s1 | i | -0.67
CN1CCN(CCNC(=O)c2cc3n(n2)CCCN(Cc2ccc(F)cc2)C3=O)CC1 | i | 0.15
Cc1nc(Oc2cccnc2)c2c3c(sc2n1)CCCC3 | i | -0.09
O=C(Nc1ccc(Br)cc1)N1CCN(c2ccc(-c3noc(C4CC4)n3)cc2)CC1 | i | -0.04
Cc1ccc(-c2cc(N3CCC(C(N)=O)CC3)nc(SCc3ccccc3)n2)cc1 | i | 0.36
O=S(=O)(c1ccccc1Cl)N1CCC(CN2CCCCC2)CC1 | i | -1.2
CCOC(=O)c1cccc(NC(=O)C2=Cc3ccc(C)cc3OC=C2)c1 | i | 2.5
CC(=O)Nc1ccc(Cn2cnc(-c3nc(-c4ccc(Cl)cc4)no3)c2)cc1 | i | -0.76
CCCn1cnc2cc(-c3noc(CNC(=O)Cc4ccccc4)n3)ccc21 | i | -0.4
COCCCNC(=O)c1cc2c(s1)-c1c(C)nn(-c3ccccc3)c1CC2 | i | 1
Cc1c(C(=O)O)sc2ncnc(N3CCc4ccccc43)c12 | i | 1.2
Cc1noc(-c2ccc(NC(=O)C3CC(=O)N(CCc4ccccc4)C3)cc2)n1 (stereo not given) | i | -0.26
CC(C)Cn1c(=O)c2ccc(C(=O)NC(C)C)cc2n2c(=O)n(CC(=O)NC3CCCC3)nc12 | i | -0.46
O=C(Nc1ccc(SCc2nnc(-c3ccccc3)o2)cc1)Nc1cccc(Cl)c1 | i | 0.49
CC(C)n1cnc(S(=O)(=O)N2CCC(C(=O)N3CCCC3)CC2)c1 | i | -0.23
COC(=O)c1ccccc1NC(=O)NCCn1c(-c2ccc(F)cc2)nc2cccnc21 | i | -0.11
CCOC(=O)c1nc(Nc2ccc(OC)c(OC)c2)c2ccccc2n1 | i | 0.83
O=C(c1cnccn1)N1CCC(Oc2cc(N3CCCC3)ncn2)C1 (stereo not given) | i | 0.96
CC1CCCN(S(=O)(=O)c2ccc(-c3nnc(C(C)C)o3)o2)C1 (stereo not given) | i | -1.5
CCc1ccc(NC(=O)C2CCN(c3nc4ccccc4nc3OC)CC2)cc1 | i | 0.71
O=C(NCc1c(-n2cccc2)sc2c1CCCC2)Nc1ccc(Cl)cc1 | i | 0.26
CCc1c(C(=O)NCCc2ccc(N3CCCCC3)cc2)[nH]c2ccc(Cl)cc12 | i | 0.36
NS(=O)(=O)c1ccc(NC(=O)c2ccc(=O)n(Cc3ccccc3F)c2)cc1 | i | -0.19
Clc1ccc(Cc2nnc3ccc(Cl)nn23)cc1 | i | 0.52
Cc1ccc(S(=O)(=O)N(C)CCc2noc(-c3ccccc3)n2)c2nsnc12 | i | -0.44

Full records from above. Order of screens: Anaer choline gr | Anaer choline gr early
Results for `CC1CCCN(S(=O)(=O)c2ccc(-c3nnc(C(C)C)o3)o2)C1` (stereo not given) → i | -1.5
Results for `CCc1c(C(=O)NCCc2ccc(N3CCCCC3)cc2)[nH]c2ccc(Cl)cc12` → i | 0.36

The listing continues.
SMILES | Anaer choline gr | Anaer choline gr early
C[C@](N)(Cc1ccc(O)cc1)C(=O)O | i | 0.16
CCc1nc(-c2cc(S(=O)(=O)NCC(=O)N3CCCCC3)c(C)s2)no1 | i | -1.6
Fc1cc(F)cc(CN=C2Nc3ccccc3NC23CCCCCC3)c1 | i | -0.97
O=c1ccc(N2CCCN(S(=O)(=O)c3ccc(F)cc3)CC2)nn1-c1ccc(F)cc1 | i | 0.82
CCOc1cccc(CN2C(=O)c3ccccc3CC2(C)C(=O)NCc2ccc(C)cc2)c1 (stereo not given) | i | 1.7
CC(C)n1cnc2nc(CSc3ccccc3NC(=O)COc3ccccc3)cc(=O)n21 | i | 3.2
O=C(Nc1cccc(-c2nnc(-c3ccccc3)o2)c1)Nc1ccc(Br)cc1F | i | 0.69
COCCn1cc(C(=O)N2CCC(Cc3ccccc3)CC2)c2c3ccccc3n(C)c2c1=O | i | 1.4
CC1CCCCN1CCNC(=O)C1CCN(c2ccc(-c3ccccc3)nn2)CC1 (stereo not given) | i | -1.6
COc1ccc2c(c1)c(C(=O)CN1CCCCC1)c(C)n2C | i | -1.1
O=C(Cn1cc(-c2ccccc2)c2ncnc(N3CCOCC3)c21)NCc1ccc(Cl)cc1 | i | 0.67
O=C(NC1CC1)c1cc2cccc3c2n1CCS3 | i | -1.2
CCCc1nnc2sc(NC(=O)C(CC)CC)nn12 | i | -0.19
CC(=O)N1c2ccccc2CC1C(=O)NCCc1ccc(S(N)(=O)=O)cc1 (stereo not given) | i | 0.63
O=C(Nc1nccs1)c1c(-c2ccccc2)nc2n1CCS2(=O)=O | i | -0.47
O=C(Cc1csc(NC(=O)Nc2ccccc2)n1)Nc1ccc2c(c1)OCCO2 | i | 0.95
CCc1nc2ccccc2n1CC(O)COc1ccc(C)c(C)c1 (stereo not given) | i | -0.47
COC(=O)c1cc(C(=O)Nc2ccc3c(c2)OCCO3)c(=O)[nH]c1C | i | -1.4
COc1ccc(-c2cn3nc(SCC(=O)NCC4CCCO4)ccc3n2)cc1 (stereo not given) | i | -1.2
Cc1cc2c(cc3n2CC(C)(C(=O)NC2CCCCC2)N(CCCN(C)C2CCCCC2)C3=O)o1 (stereo not given) | i | -0.12
O=C(CSc1nnc2c3ccccc3nc(-c3ccccc3)n12)Nc1ccc2c(c1)OCCO2 | i | 0.54
COc1cccc(-c2noc(Cn3cnc4c(nnn4-c4ccccc4OC)c3=O)n2)c1 | i | 0.02
O=C(C1CCCN(c2ncc(-c3cccc(F)c3)cn2)C1)N1CCC(N2CCCCC2)CC1 (stereo not given) | i | -0.71
Cc1cc2c(cc1C(=O)NC(C)C)OCCCO2 | i | -0.27
C#CCOc1cc(C2CC(=O)Nc3c2c(C)nn3-c2nncc(-c3ccc(F)cc3)n2)ccc1OC (stereo not given) | i | 1.2
CCc1ccc(-c2ccc(=O)[nH]n2)cc1S(=O)(=O)Nc1cc(C)ccc1C | i | 2.7
O=C(NCCc1c[nH]c2ccccc12)c1ccc(N2CCCCC2)c(S(=O)(=O)N2CCCCC2)c1 | i | -0.2
O=C(NC1CCCC1)C1CCN(c2ncnc3c2sc2ncccc23)CC1 | i | 0.03
Cc1oc(C2CCN(C(=O)NCC3CCCO3)CC2)nc1C(=O)N1CCSCC1 (stereo not given) | i | -0.18
CC(=O)NCCC1CCN(C(=O)c2ccc(F)cc2)CC1 | i | 0.1
Cn1c(CCNC(=O)C2CC2)nc2cc(NC(=O)C(C)(C)C)ccc21 | i | 0.46
CCCn1nnc2cc(C(=O)Nc3ccc(S(N)(=O)=O)cc3)ccc21 | i | -0.26
Cc1ccc(N2C(=O)CCS2(=O)=O)cc1S(=O)(=O)NC1CCCC1 | i | 0.27
CNC(=O)N1CCCN(S(=O)(=O)C(C)C)CC1 | i | 0.28
O=C(O)c1cnc[nH]c1=O | i | -1.8
O=S(=O)(c1ccccc1Cl)N1CCN(c2ncnc3c2nnn3-c2cccc(F)c2)CC1 | i | 1.1
COC(=O)c1sccc1NC(=O)Cn1c(=O)nc(-c2ccccc2)c2cc(Cl)ccc21 | i | -0.88
CCOc1ccc(-n2nnc3c(N4CCN(C(=O)C5CCCCC5)CC4)ncnc32)cc1 | i | 0.46
Cn1c(N2CCN(C(=O)c3ccc(Cl)cc3)CC2)cc(=O)n(C)c1=O | i | -0.17
Cc1ccc2sc(N3CCN(CCNC(=O)c4ccc5c(c4)OCCO5)CC3)nc2c1C | i | 0.36
CCCCCC(O)c1cccc(OCc2ccc3ccccc3n2)c1 (stereo not given) | i | 0.21
CCc1nn2c(=O)cc(CSc3nnc(Cc4c(C)nc5c(C)cccn5c4=O)n3C)nc2s1 | i | 0.15
CCN(Cc1ccccc1)c1ccc(C(=O)O)cc1NS(=O)(=O)c1ccc(C)cc1C | i | 0.28
Cc1cccc(NC(=O)Nc2ccc3c(c2)oc(=O)n3C)c1 | i | 0.82
CCCC(=O)Nc1cc(C)nn1-c1ncnc2c1cnn2-c1ccc(Cl)cc1 | i | 0.59
CC1CCN(C(=O)c2cc(NS(=O)(=O)c3ccc(Cl)cc3)ccc2N2CCNCC2)CC1 | i | -0.47
O=C(c1csc(S(=O)(=O)N2CCN(c3ccc(Cl)cc3)CC2)c1)N1CCCC1 | i | 0.38
Clc1ccc(Cc2nn3c(-c4ccccn4)nnc3s2)cc1 | i | -0.18
CCc1onc(C)c1C1CCCN1Cc1ccc(C)s1 (stereo not given) | i | 0.26
O=C(NCC(c1ccccc1Cl)N1CCCC1)c1cc(-c2ccc3c(c2)OCCO3)on1 (stereo not given) | i | 0.88

In the list so far, these have an aryl methoxy group.
SMILES | Anaer choline gr | Anaer choline gr early
COc1ccc(Br)c(C2CC(=O)Nc3n[nH]c(C)c32)c1 (stereo not given) | i | 0.29
COC(=O)C(C)Sc1nnc2n1CCN2c1ccc(OC)cc1 (stereo not given) | i | 1
COc1ccccc1CNC(=O)CC(C)CC1=NS(=O)(=O)c2ccccc2N1 (stereo not given) | i | -0.27
COc1cc2c(cc1O)CC[C@@H]1[C@@H]2CC[C@]2(C)[C@@H](O)CC[C@@H]12 | i | 0.37&0.64
COc1ccc2nc(-n3nc(C)c4c3NC(=O)CC4c3c(C)sc4ccccc34)sc2c1 (stereo not given) | i | -0.05
CCOC(=O)c1nc(Nc2ccc(OC)c(OC)c2)c2ccccc2n1 | i | 0.83
CCc1ccc(NC(=O)C2CCN(c3nc4ccccc4nc3OC)CC2)cc1 | i | 0.71
COc1ccc2c(c1)c(C(=O)CN1CCCCC1)c(C)n2C | i | -1.1
COc1ccc(-c2cn3nc(SCC(=O)NCC4CCCO4)ccc3n2)cc1 (stereo not given) | i | -1.2
COc1cccc(-c2noc(Cn3cnc4c(nnn4-c4ccccc4OC)c3=O)n2)c1 | i | 0.02
C#CCOc1cc(C2CC(=O)Nc3c2c(C)nn3-c2nncc(-c3ccc(F)cc3)n2)ccc1OC (stereo not given) | i | 1.2

Screening data from PubChem.
